High-throughput results: PubChem BioAssay, several laboratories
Rce1 inhib – yeast Ras-converting enzyme inhibition; 0.27% of 290,000 active; Q03530; calls only; yeast membranes, quenched prenylated peptide cleavage fluorescence;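 active means fall in fluorescence gain of 50% or more versus controls, with final raw signal at or below 3038400; inconclusive means same 50% fall but final raw signal above 3038400; inactive means fall in fluorescence gain under 50%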;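 further: plate controls were neutral control wells for no effect and wells lacking membranes for full effect; tested at 10 µM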
eIF4H FP inh – inhibitors of RNA binding by human eIF4H. inhibition, % at 35 µM. eIF4H fluorescence polarization binding assay. 0.94% of 290,000 active. Q15056;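 active means 50% or more with normal probe brightness, or confirmed in later tests; inconclusive means above 50% with abnormal brightness, or retests that disagree; inactive means below 50% or failed in later tests; about a fifth of its hits are not listed in these tables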;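 further: calls also rest on retests at 20 µM and on dose response follow-up; 0% = protein and probe with vehicle and 100% = probe without protein; strong numbers were not always called active; many hits fall short of the cut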
UUG fidelity – alters start codon recognition fidelity in yeast | 0.13% of 350,000 active | activity score, % at 18.7 µM | S. cerevisiae UUG-firefly luciferase reporter, luminescence/redox ratio;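 active means replicate mean at a twofold rise or more, about +100% in these data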;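 further: firefly luciferase made from a UUG start codon reports start codon fidelity; reporter light over untreated wells divided by growth signal over untreated wells; some hits fall short of that in this replicate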
MT1-MMP act inh – MT1-MMP (human) activation inhibition; P50281; HT1080 RFP-PRO-GFP cells, GFP/RFP ratio fluorescence, overnight; percent of plate control window, DMSO zero; GFP/RFP ratio change, % at 20 µM; 0.061% of 360,000 active; AID 651647;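 active means GFP/RFP ratio change of at least 30% with cell ATP level not reduced by more than half and red fluorescence within 50% of control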; further: strong numbers were not always called active
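Assay system: HT1080 RFP-PRO-GFP cells. Benchmarks: DMSO vehicle wells and RFP-L50D-GFP reporter cell wells. Times: overnight cell settling, then overnight compound exposure, 37 °C, 5% CO2. Compound: 20 µM single dose, 1% DMSO. Read-out basis: GFP/RFP fluorescence ratio.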
Env fusion inh – inhibitors of HIV Env-mediated cell fusion; inhibition, % at 12.3 µM; 1.1% of 360,000 active; HeLa-JRFL Env/CEM21 cell fusion, luciferase;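 active means mean replicate inhibition score of at least 50 and every replicate individually at or above 50; inconclusive means only one of the two criteria met; inactive means mean below 50 and not all replicates reaching 50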;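 further: 0% = plate neutral controls and 100% = maraviroc near 300 nM; one replicate is shown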
CSC inhib – blocks cancer stem cells. cancer stem cell-like cells viability, luminescence. inhibition, % at 7.5 µM. 1.1% of 300,000 active;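 active means mean at 75% or more and at least half the replicates too; inconclusive means mean and replicates disagree; tested in HMLE shEcad cells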;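 further: 0% = median of negative and 100% = median of positive control wells; the first replicate is given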
PABP FP inh – PABP-poly(A) binding inhibition. inhibition, % at 35 µM. 1% of 290,000 active. PABP-poly(A) RNA binding, fluorescence polarization. AID 2014;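 active means 50% or more with normal probe brightness, or confirmed in later tests; inconclusive means above 50% with abnormal brightness, or retests that disagree; inactive means below 50% or failed in later tests; about a fifth of its hits are not listed in these tables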;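 further: calls also rest on retests at 20 µM and on dose response follow-up; controls were probe without protein and protein plus probe with vehicle; some compounds called inactive have numbers as strong as hits; many hits fall short of the cut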
Target sequence (P11940 whole entry, looked up): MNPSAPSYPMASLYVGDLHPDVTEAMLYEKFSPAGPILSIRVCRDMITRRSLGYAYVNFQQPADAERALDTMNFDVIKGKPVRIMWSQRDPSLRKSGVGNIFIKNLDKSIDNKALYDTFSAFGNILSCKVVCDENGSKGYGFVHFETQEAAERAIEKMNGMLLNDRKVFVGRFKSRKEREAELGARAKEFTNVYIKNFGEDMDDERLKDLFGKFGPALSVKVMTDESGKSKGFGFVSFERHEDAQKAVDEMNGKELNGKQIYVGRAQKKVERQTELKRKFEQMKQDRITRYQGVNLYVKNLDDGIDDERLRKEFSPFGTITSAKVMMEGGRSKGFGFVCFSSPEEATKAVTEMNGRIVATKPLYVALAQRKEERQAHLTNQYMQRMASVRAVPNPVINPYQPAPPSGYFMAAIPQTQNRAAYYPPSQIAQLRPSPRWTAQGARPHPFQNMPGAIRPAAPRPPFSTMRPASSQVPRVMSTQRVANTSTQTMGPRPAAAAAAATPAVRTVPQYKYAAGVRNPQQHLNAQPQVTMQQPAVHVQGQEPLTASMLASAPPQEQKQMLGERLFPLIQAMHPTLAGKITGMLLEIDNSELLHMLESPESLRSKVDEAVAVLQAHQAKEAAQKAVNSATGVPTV
MT1-MMP act inh RFP – second read-out of MT1-MMP act inh, no call of its own (marks repeat the call); RFP signal change, %; measured here: RFP expression control read;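 0 = vehicle wells; hits needed this value within 50% of zero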
Numbers without * were called inactive; i = inactive; ? = inconclusive; / = no result given.

Values run as follows: Rce1 inhib, eIF4H FP inh, UUG fidelity, MT1-MMP act inh, MT1-MMP act inh RFP, Env fusion inh, CSC inhib, PABP FP inh
- CCc1nc(N2CCN(S(=O)(=O)c3ccc(Br)cc3)CC2)c2c(C)c(C)sc2n1
→ i, /, -14.1, -7.6, -3.9, -10.7, 6.4, /
- O=c1cc(CN2CCCCCCC2)c2ccccc2o1
→ /, /, -10.9, 1.0, 0.4, -2.9, /, /
- Cc1cc(NC(=O)c2ccccc2C)n(-c2cccc(F)c2)n1
→ i, -11.1, -11.8, 4.1, 1.7, -2.7, 9.8, -13.7
- CCc1cc(C(=O)N2CCCC(C(=O)c3ccc(Cl)cc3)C2)no1 (stereo unspecified)
→ i, -3.5, -15.8, -4.4, -3.9, -3.7, 10.2, 2.9
- COc1ccc(C(CNC(=O)c2ccc(OCc3ccccc3)cc2)N2CCOCC2)cc1 (stereo unspecified)
→ /, /, 4.7, 1.1, -0.5, -3.0, -1.5, /
- COc1ccccc1NC(=O)Cn1cc(C(=O)C(=O)N2CCOCC2)c2ccccc21
→ i, -6.2, 2.2, -2.3, 0.6, 0.0, -5.0, 1.9
- O=C(COC(=O)c1cccc(Br)c1)NCCC1=CCCCC1
→ i, -5.3, /, 2.3, 5.3, 4.6, -7.7, 6.7
- OC[C@@H]1[C@@H](c2ccccc2)C(c2cccc(Cl)c2)=NN1c1ccccc1
→ /, /, -11.9, -2.0, -5.5, 11.0, /, /
- O=C1CCC[C@@H]2C[C@@]3(C[C@@H]4CCN1[C@H]24)Nc1cc(Cl)c(Cl)cc1NC3=NCc1ccccc1
→ /, /, -2.8, -1.3, -11.1, -12.5, /, /
- Cc1ccccc1-n1ncc(C(C)NC(=O)c2ccccc2)c1C (stereo unspecified)
→ /, 2.0, /, -2.3, -5.0, 24.0, -2.5, -3.0
- COc1ccc(S(=O)(=O)N2CCCC2)cc1NC(=O)c1ccccc1F
→ i, -3.2, -11.4, -1.3, -1.2, -1.6, -15.2, 8.4
- CCOc1cc(C(N)=O)cc(Cl)c1OCC
→ i, -9.3, /, -5.3, -3.6, 18.0, -6.3, -8.1
- NC(=NCCc1ccccc1)NC(=O)c1cc(Cl)ccc1O
→ i, /, /, 5.6, 1.9, -20.5, 23.1, /
- CCc1ccccc1Nc1nc(N)nc(COC(=O)CCNS(=O)(=O)c2ccccc2)n1
→ i, /, /, 0.5, 0.7, -8.9, -9.1, /
- COC(=O)C(NC(=O)CCc1nnc2ccc(N3CCC(C)CC3)nn12)C(C)C (stereo unspecified)
→ i, 1.1, -6.8, 2.4, 4.4, -6.1, -14.6, 1.0
- CC(C)CCC(O)(c1ccccc1)C(CN1CCOCC1)c1ccccc1 (stereo unspecified)
→ i, -2.7, 9.0, -11.6, -14.0, 34.8, 2.5, 13.4
- CS(=O)(=O)c1ccccc1-c1nc(-c2cccc(Cl)c2)no1
→ i, ?, /, 1.1, -2.3, /, 1.2, ?
- Cc1csc2nc(COC(=O)c3cccc(N(C)C)c3)cc(=O)n12
→ /, /, -15.2, -1.5, 6.9, -119.8, /, /
- CCC(C)(C(=O)NC1CCCC1)N(Cc1ccco1)C(=O)c1ccccn1 (stereo unspecified)
→ i, 5.0, -7.1, -1.2, 6.5, -107.9, 11.9, -6.4
- S=C(NCc1ccco1)N/N=C/c1cccnc1
→ i, 4.6, /, -0.6, -0.2, -7.8, -6.2, 5.8
- Cc1onc(-c2ccccc2Cl)c1C(=O)Nc1cccc2cccnc12
→ i, -8.1, -11.8, -5.0, -27.1, /, 53.1, -17.4
- COc1ccc(S(=O)(=O)N2CCC[C@H]2C(=O)NCc2ccc(Cl)cc2)cc1
→ i, -3.1, 2.3, -5.7, -6.9, 16.4, -1.1, -11.6
- CC1(C)SC2C(NC(=O)C3(N)CCCCC3)C(=O)N2C1C(=O)O (stereo unspecified)
→ /, /, 3.4, 4.4, 0.3, -9.9, /, /
- CC(CN1CCC(n2nccc2NC(=O)c2ccccc2Cl)CC1)c1ccccc1 (stereo unspecified)
→ i, 38.8, -2.4, -0.1, -0.6, -13.1, -10.2, 20.6
- Cc1ccc(C)c(C2NC(=O)c3ccccc3N2)c1 (stereo unspecified)
→ i, 8.0, -5.2, -8.7, -11.2, -138.3, 33.4, 3.2
- CC1Cc2nc(SCC(=O)Nc3ccc4c(c3)OCO4)n(CCc3ccccc3)c(=O)c2S1 (stereo unspecified)
→ i, 9.2, -9.8, -4.2, -5.2, -6.3, 2.1, -11.9
- O=C(c1ccccc1Oc1nnnn1-c1ccccc1)N1CCOCC1
→ i, -3.6, -23.5, -1.6, -1.6, 15.5, -13.9, -3.4
- COc1ccccc1CNc1nc(=S)[nH]c2cc(OC)c(OC)cc12
→ i, -7.8, -20.6, 1.4, 2.5, 3.9, 5.8, 2.8
- O=C(N/N=C/c1ccccc1F)NC12CC3CC(CC(C3)C1)C2
→ i, -6.3, -19.8, 2.5, -5.5, -2.9, 6.9, -5.5
- CC(C)(CNc1ccc(S(=O)(=O)C(F)(F)F)cc1[N+](=O)[O-])N1CCOCC1
→ i, -9.1, -19.3, 2.8, -12.2, 39.0, 52.6, -4.0
- O=C1c2ccccc2C(=O)N1CCOc1ccccc1Cl
→ i, -3.1, -10.0, 1.6, 0.4, -47.1, -3.8, 12.6
- COc1cc2c(cc1NC(=O)CSc1nccn1C)oc1ccccc12
→ i, 2.1, -6.6, -6.4, -2.2, -7.6, 17.1, -7.6
- CC(C)CCC1(CCO)C(=O)N=C(N)NC1=O (stereo unspecified)
→ /, /, -7.6, 0.9, 2.7, 14.8, /, /
- O=C(COC(=O)C1CCN(S(=O)(=O)c2cccs2)CC1)c1cc2ccccc2o1
→ i, 2.3, -6.0, 1.0, 7.4, /, -1.5, -3.2
- O=C(CN1C(=O)COc2ccc(S(=O)(=O)N3CCOCC3)cc21)NCc1ccco1
→ i, 2.4, /, 1.2, -3.7, 3.6, -8.4, -3.1
- COc1ccc(NC(=O)Cc2nnc(SCC(=O)NC3CCCCC3C)n2C)cc1 (stereo unspecified)
→ i, -5.4, -12.5, -2.5, 1.7, 5.7, /, 6.8
- COc1ccc(CN2CCOCC2)cc1
→ i, -4.7, -21.9, 3.4, 1.8, /, 5.6, -2.9
- CN(C(=O)COC(=O)c1cccs1)c1c(N)n(Cc2ccccc2)c(=O)[nH]c1=O
→ i, /, -9.6, 1.2, 2.4, 1.5, -4.9, /
- CC(=O)Nc1nc(-c2ccccc2)ns1
→ i, -1.9, -14.9, 3.7, 5.3, -37.1, 1.2, 48.5
- COc1ccccc1N1CCN(S(=O)(=O)CCNC(=O)c2cccc(F)c2)CC1
→ i, /, -11.9, 13.1, 4.4, 2.9, -8.2, /
- O=C(O)c1ccc(NC(=O)C(c2ccccc2)c2ccccc2)cc1
→ i, 1.6, -14.8, -0.2, 2.3, -3.1, -12.2, 9.9
- CN(C)CCNC(=O)c1onc(CSc2ccc(F)c(F)c2)c1C(=O)NCCN(C)C
→ i, 10.9, -4.5, 0.8, 2.2, -31.9, 9.7, 7.1
- O=S(=O)(NCc1ccccn1)c1cc(Cl)ccc1Cl
→ /, 0.2, -14.0, -3.6, -0.9, 5.9, -9.4, -2.3
- CCN(CC)C(=O)CSc1nnc(-c2cccc(OC)c2)o1
→ i, -3.1, -20.3, 5.2, 1.6, -25.4, -5.1, 8.8
- COC(=O)C1=NN(N=O)C2(CC(=O)N(c3cc(C)cc(C)c3)C2=O)C1 (stereo unspecified)
→ i, 18.0, 5.6, -8.9, 5.1, -17.3, 1.4, 30.8
- Cc1cc(-c2nn(-c3ccccc3F)cc2CN2CCN(c3ccncc3)CC2)c(C)s1
→ i, -0.1, 1.5, /, /, 22.9, -1.2, -9.2
- CNC(=O)COc1ccc(S(=O)(=O)Nc2ccc(C)cc2)cc1
→ i, -9.4, /, 11.7, 6.2, 14.2, -9.4, 4.4
- Cc1ccccc1C(=O)NNC(=O)Nc1ccccc1
→ i, -5.1, /, /, /, -0.7, -9.0, -9.3
- Cn1cnnc1SCC(=O)NNC(=O)c1ccc([N+](=O)[O-])cc1
→ /, /, -10.7, 3.7, 5.4, /, -17.7, /
- CCN(C(=O)COC(=O)/C=C/c1ccco1)C1CCCCC1
→ /, /, 2.4, -3.2, -4.4, -3.3, -8.2, /

Continued:
Values run as follows: Rce1 inhib, eIF4H FP inh, UUG fidelity, MT1-MMP act inh, MT1-MMP act inh RFP, Env fusion inh, CSC inhib, PABP FP inh
- CC[C@]12c3[nH]c4ccccc4c3CCN1C(=O)C(CC(=O)NC/C=C(\C)CCC=C(C)C)C[C@@H]2C(=O)N1CCN(C(=O)c2ccco2)CC1 (stereo partly specified)
→ /, /, -8.0, -1.1, -11.4, -88.2, 18.4, /
- CCC1C(=O)NCCN1C(=O)c1cccc(OC2CCN(S(=O)(=O)N(C)C)CC2)c1 (stereo unspecified)
→ i, /, -14.9, 1.8, 2.0, -4.5, -15.5, /
- Cc1cc(C)c2[nH]c(=O)c(CN(CC3CCCO3)C(=S)NCc3ccco3)cc2c1 (stereo unspecified)
→ i, -2.1, /, -2.3, -2.7, 30.1, 20.9, -2.4
- Cc1ccc(S(=O)(=O)NCCc2ccccc2)cc1
→ i, 1.2, -3.5, 0.6, 1.8, 15.5, -19.0, 5.6
- CC(=O)Nc1nonc1NC(=O)CSc1ccccn1
→ i, -2.0, -9.9, 3.9, 2.8, -55.9, -19.1, 0.3
- CCOC(=O)c1cc(CC)sc1NC(=O)CC1SC(N)=NC1=O (stereo unspecified)
→ i, -13.7, /, -3.2, -1.7, 0.6, -16.0, 4.0
- Cc1ccc(NC(=O)CCC(=O)OCc2ccc(Br)cc2)cc1
→ i, -3.5, /, 5.7, -1.1, -61.6, -6.5, -10.9
- COc1ccc(-c2[nH]ncc2CNCc2cc(C)n(C)n2)c(F)c1
→ i, -2.1, -16.1, 1.9, -2.4, 4.7, -14.6, -3.3
- CC(c1ccccc1)n1cc(C(=O)NCc2cccnc2)nn1 (stereo unspecified)
→ i, 2.6, -7.3, -11.5, -7.2, -37.1, -12.7, -1.4
- COc1ccc(NC(=O)NCc2ccc(Cl)cc2)cc1
→ i, -3.0, -6.3, 3.4, 1.3, 1.0, 7.1, -7.4
- COc1ccc(-c2nc3ncccn3c2Nc2ccc3c(c2)OCCO3)cc1
→ i, 0.8, -1.9, 11.6, -2.0, -1.2, /, 0.2
- O=[N+]([O-])c1cc(-c2nnc(-c3ccccc3)o2)ccc1Oc1ccc(Cl)cc1
→ i, -6.1, -16.2, 1.8, -2.1, /, -8.5, 2.6
- Cc1ccc(S(=O)(=O)/N=C2\CN(C)C(=O)N2C)cc1
→ i, 3.4, /, 2.1, 4.5, -14.9, 1.6, -0.5
- O=C(Cn1nc(-c2ccccc2)c2ccccc2c1=O)Nc1ccc(F)cc1
→ i, -1.0, -13.1, 0.1, -4.2, -1.8, -14.0, -15.3
- O=C(NCCOc1ccccc1)C(=O)NCC1CCCO1 (stereo unspecified)
→ i, -4.1, -8.7, 2.1, -0.1, 3.4, 12.8, -10.7
- OCc1ncccc1O
→ i, 7.5, -4.2, -0.8, 3.2, 1.0, -0.2, 12.1
- CC1Cc2ccccc2N1C(=O)CCn1cccn1 (stereo unspecified)
→ i, -5.0, -19.6, 3.3, 6.1, -3.1, 0.2, -3.4
- Clc1ccc(OCCCCN2CCc3ccccc3C2)cc1
→ i, -0.1, /, -2.7, 1.1, 25.3, 40.6, 3.6
- Nc1c(C(=O)N2CCOCC2)oc2ccccc12
→ i, 28.6, -18.5, -3.2, 6.8, -8.1, -9.0, 4.1
- CCOC(=O)c1c(NC(=O)COC(=O)c2ccc(Cl)nc2)sc(C)c1C
→ /, /, -12.5, 4.5, 2.4, -10.5, /, /
- Cc1ccc(C)c(S(=O)(=O)N2CCCC2CNC(=O)C(=O)NCCN2CCOCC2)c1 (stereo unspecified)
→ i, /, -20.6, 0.3, -0.3, /, -8.2, /
